Screens deposited in PubChem by National Center for Advancing Translational Sciences (NCATS).
TRPML1 agonist: human mucolipin-1 channel agonism; Q9GZU1; TRPML1-expressing cells, Ca2+ dye fluorescence, FDSS; host cell line not named in the record; reference of the full effect not given here; activation, % (concentration not given with the values); actives 0.12% (n = 410,000); AID 624414; in the data active = activation above about 50%; inconclusive = about 30% to 50%; inactive = below about 30%; note: 0% is about no effect; the text of the record puts the active cut at 80%
Target sequence (Q9GZU1 whole entry, looked up): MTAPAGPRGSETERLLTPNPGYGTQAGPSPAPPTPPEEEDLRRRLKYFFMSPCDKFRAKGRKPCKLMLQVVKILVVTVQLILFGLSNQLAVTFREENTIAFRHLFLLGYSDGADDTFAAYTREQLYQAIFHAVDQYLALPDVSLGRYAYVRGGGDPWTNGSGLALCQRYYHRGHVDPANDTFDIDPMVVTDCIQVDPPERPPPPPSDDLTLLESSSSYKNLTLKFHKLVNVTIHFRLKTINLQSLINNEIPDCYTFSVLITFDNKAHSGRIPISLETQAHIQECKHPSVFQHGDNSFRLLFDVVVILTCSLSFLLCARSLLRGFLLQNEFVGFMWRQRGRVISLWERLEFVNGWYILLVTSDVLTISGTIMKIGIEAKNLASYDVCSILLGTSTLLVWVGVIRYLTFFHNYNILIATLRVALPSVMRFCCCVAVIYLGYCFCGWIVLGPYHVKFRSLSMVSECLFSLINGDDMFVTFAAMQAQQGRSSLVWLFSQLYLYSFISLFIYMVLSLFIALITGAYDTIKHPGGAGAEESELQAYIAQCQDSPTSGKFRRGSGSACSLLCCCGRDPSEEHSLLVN
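Cells: TRPML1-DL, 1X Tet inducer, ~16 h at 37 degrees C/5% CO2. Dye: ABD Ca8 no-wash + quencher, 45-90 min RT. Read: 10 s baseline, compound add, 110 s agonist phase; 54-4 EC80 (4uM final), 110 s antagonist phase.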
D2 potentiator: potentiates the human D2 dopamine receptor allosterically | P14416 | DiscoveRx D2 beta-arrestin cells, luminescence, 90 min; 100% = 57 uM dopamine signal | potentiation, % (concentration not given with the values) | actives 0.23% (n = 360,000) | AID 624464; active = potentiation of 50% or more; inconclusive = 30% to 50%; inactive = 30% or less;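 note: compound concentration not given in the record; tested on top of an EC20 dose of dopamine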
Target sequence (P14416 whole entry, looked up): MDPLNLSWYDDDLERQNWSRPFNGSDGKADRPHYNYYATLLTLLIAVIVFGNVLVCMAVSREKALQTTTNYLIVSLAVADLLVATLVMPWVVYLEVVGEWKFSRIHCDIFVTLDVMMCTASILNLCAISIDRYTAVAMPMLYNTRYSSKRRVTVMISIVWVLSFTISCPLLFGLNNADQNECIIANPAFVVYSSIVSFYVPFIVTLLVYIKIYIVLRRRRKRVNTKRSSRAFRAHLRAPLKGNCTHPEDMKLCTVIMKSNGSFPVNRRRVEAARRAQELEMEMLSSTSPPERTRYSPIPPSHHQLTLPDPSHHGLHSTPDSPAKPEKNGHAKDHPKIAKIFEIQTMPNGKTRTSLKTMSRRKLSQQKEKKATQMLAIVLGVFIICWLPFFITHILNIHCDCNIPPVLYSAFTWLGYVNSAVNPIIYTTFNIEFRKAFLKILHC
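D2 cells co-treated with compound plus 50 nM dopamine (EC20) for 90 min at 37 deg C to detect potentiation. Beta-arrestin recruitment was read as enzyme-fragment luminescence after 1 h at ambient temperature. Full response was set by 57 uM dopamine.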
D2 agonist: activates the human D2 dopamine receptor. activation, % (no concentration beside the values). P14416. DiscoveRx PathHunter D2 beta-arrestin, luminescence, 90 min; 100% = 57 uM dopamine signal. actives 0.084% (n = 360,000). AID 624465; in the data active = activation above about 40%; inconclusive = about 15% to 40%; inactive = below about 15%; note: compound concentration not given in the record; the text of the record calls up to 30% inactive
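DiscoveRx PathHunter D2 beta-arrestin cells (2,100/well) attached overnight, then compound-stimulated 90 min at 37 C in HBSS/10 mM HEPES/0.1% Tween-20 buffer; beta-galactosidase complementation read by luminescence after 1 h at ambient temperature. Dopamine 57 uM final (EC100) as control.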
TRPML1 inh: human mucolipin-1 channel inhibition. Q9GZU1. TRPML1-inducible cells, Ca2+ dye fluorescence, FDSS; hits give low values; inhibition of EC80 agonist-evoked calcium signal. activity change, negative = inhibition, % (no concentration beside the values). actives 0.02% (n = 390,000); in the data active means activity change below about -50%; inconclusive means about -30% to -50%; inactive means above about -30%;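 note: stimulus is agonist 54-4 at its EC80 concentration; % is set by controls: 0 for no effect and ±100 for the full control effect; compound concentration not given in the record; the text of the record puts the active cut at -80%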
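Calcium fluorescence in TRPML1-DL cells induced overnight with Tet: a 110 s read after compound pin addition, then a 110 s antagonist read after challenge with 54-4 at 4 uM final (EC80).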
PINK1 modulator: PINK1 expression modulation; PINK1 immunofluorescence, high-content cytometry, 24 h; Potency, µM (titrated, usually from 76.6 µM), for inactives: at the highest dose activation (PINK1 increase), actives largely listed as activators; actives 0.2% (n = 410,000); active = well fitted activation curve with a large enough effect; inconclusive = small, poorly fitted or top-dose-only effect; inactive = flat fitted curve, though single readings scatter; cell line not stated here;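 note: potency is the fitted concentration of half-maximal effect; % of control where 0% means no effect; nearly all actives have a fitted effect of over 65% in size; a mitochondrial uncoupler was the plate control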
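PINK1 protein level read as immunofluorescence by microplate cytometer in a fixed, stained stable cell line after 24 h exposure to five compound concentrations, with CCCP as control.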
Six1-Eya2 blk: inhibitors of human Six1/Eya2 interaction; Q15475+O00167; AlphaScreen GST-Six1/His-Eya2 binding, biochemical; hits give low values; control for the full effect not named in the record; activity change, % (no concentration beside the values); actives 0.56% (n = 360,000); AID 651725; in the data active = activity change below about -65%; inconclusive = about -30% to -65%; inactive = above about -30%; note: % is set by controls: 0 for no effect and ±100 for the full control effect; compound concentration not given in the record
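AlphaScreen with GST-Six1 and His-Eya2 (5X mix: 250 nM and 500 nM), glutathione donor and nickel acceptor beads; buffer 50 mM Tris pH 8.0, 300 mM NaCl, 1 mM TCEP; 1 h at 37 C in the dark.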
An asterisk follows results filed as active; ? = inconclusive; · = no result given; & = joins results of further samples; [ ] = another dose, or the depositor's remark.

SMILES	TRPML1 agonist	D2 potentiator	D2 agonist	TRPML1 inh	PINK1 modulator	Six1-Eya2 blk
COc1ccc(-c2nc(SC)n(S(=O)(=O)c3ccccc3)n2)cc1	-0.4	-7.8	-4.2	49.7	2.2%	0.0
COc1ccc(CN(CCC(c2ccco2)C(C)C)C(C)=O)cc1OC (configuration not stated)	-1.3	-14.2	-4.3	5.9	2.8%	-1.2
C#CCOC(=O)Nc1cc(C)n(-c2ccccc2)n1	-0.4	-17.8	-2.6	35.0	0.9%	-0.1
CCN(CC)c1ccc2cc(C(N)=O)c(=N)oc2c1	55.7*	1.5	-2.4	-7.0	?	-3.2
NC(=O)c1cnn(-c2cc(Oc3ccccc3)ncn2)c1N	0.8	-1.0	-1.6	8.3	2.1%	15.9
CC1(C)CC(=O)C(=CN2CCOCC2)C(=O)C1	2.1	-3.7	1.2	13.4	6.0%	-5.2
CC[C@H](C)C(=O)O[C@H]1CCC=C2C=C[C@H](C)[C@H](CC[C@@H]3C[C@@H](O)CC(=O)O3)[C@H]21	-0.6	-9.6	1.9	-1.7	?	-0.1
COC(=O)c1ccc(Cl)cc1NC(=O)NCc1c(-n2cccc2)sc2c1CCCC2	0.0	·	·	5.5	0.9%	·
COC(=O)CCn1nc(-c2ccc(Cl)cc2)c2ccccc2c1=O	1.9	-9.2	-3.8	2.1	-1.5%	-0.9
CCCN(CCC)C(=O)Cn1c2ccccc2c2nc(=O)cc(C)n21	0.8	-4.2	-1.4	-8.0	0.2%	2.7
C[C@H](CO)N1C[C@H](C)[C@@H](CN(C)Cc2ccc3c(c2)OCCO3)OCc2cnnn2CCCC1=O	-0.2	2.9	-3.4	32.8	-0.2%	-3.9
COc1ccc(/C=C(/NC(=O)c2ccccc2)C(=O)NC2CCS(=O)(=O)C2)cc1 (configuration not stated)	-0.1	-3.8	0.3	-9.2	1.8%	9.9
Brc1ccc(CSc2ccc(-c3ccco3)nn2)cc1	0.1	2.0	-1.8	1.5	9.0%	8.5
O=C1C2C3C=CC(C4CC34)C2C(=O)N1/N=C/c1ccc([N+](=O)[O-])o1 (configuration not stated)	-0.2	22.6	9.3	13.1	0.8%	102.7
COc1ccc(S(=O)(=O)N2Cc3ccccc3CC2C(=O)Nc2ccc(C)cc2)cc1OC (configuration not stated)	0.5	·	·	2.6	1.3%	·
C[C@H]1COC(=O)[C@H](Cc2ccc(F)cc2)C/C=C\C[C@@H](CC(=O)N(CCO)Cc2ccccc2)C(=O)N1	-0.3	-3.7	-4.7	11.0	-1.1%	4.3
Cc1nnc(-c2cnn(-c3ccccc3)c2N)n1Cc1ccccc1	-1.0	-8.3	-1.3	-5.5	-2.3%	2.9
CC(=O)Nc1ccc(S(=O)(=O)Nc2cc(C)cn(Cc3ccc(C)cc3)c2=O)cc1	0.5	-5.6	-2.3	-1.3	3.9%	0.6
CC(C)(C)c1ccc(C2NC(=O)c3n[nH]c(-c4cccs4)c32)cc1 (configuration not stated)	3.3	·	·	-1.9	1.7%	·
O=C(Nc1ccc(-c2noc(CCc3ccccc3)n2)cc1)c1ccco1	1.2	-2.6	1.5	-18.7	17.6%	-3.6
CCN(CC)S(=O)(=O)c1cc(NS(=O)(=O)c2ccccc2)ccc1C	2.0	-1.1	0.2	-6.0	-0.4%	6.5
O=C(NNC(=S)NC(=O)c1ccc(Br)cc1)c1ccc([N+](=O)[O-])cc1	15.8	-49.7	-6.4	4.9	3.0%	-9.4
CCCC(CCC)C(=O)O	0.1&0.5	7.9&-2.4	-5.5&-7.6	-5.7&22.7	0.2%&2.1%	1.7&2.9
CC(=O)N1N=C(N)SC1(C)C	-0.4	0.5	-5.1	12.0	-0.2%	14.6
CC(=O)N1CCc2cc(Br)cc(S(=O)(=O)NCC3CCCO3)c21 (configuration not stated)	-0.8	-6.3	-2.5	-4.2	-2.0%	0.9

Whole records as entered above.
Record of COc1ccc(/C=C(/NC(=O)c2ccccc2)C(=O)NC2CCS(=O)(=O)C2)cc1 (configuration not stated) : TRPML1 agonist = -0.1; D2 potentiator = -3.8; D2 agonist = 0.3; TRPML1 inh = -9.2; PINK1 modulator = 1.8%; Six1-Eya2 blk = 9.9
Record of C#CCOC(=O)Nc1cc(C)n(-c2ccccc2)n1 : TRPML1 agonist = -0.4; D2 potentiator = -17.8; D2 agonist = -2.6; TRPML1 inh = 35.0; PINK1 modulator = 0.9%; Six1-Eya2 blk = -0.1
Record of C[C@H](CO)N1C[C@H](C)[C@@H](CN(C)Cc2ccc3c(c2)OCCO3)OCc2cnnn2CCCC1=O : TRPML1 agonist = -0.2; D2 potentiator = 2.9; D2 agonist = -3.4; TRPML1 inh = 32.8; PINK1 modulator = -0.2%; Six1-Eya2 blk = -3.9

(next part)
SMILES	TRPML1 agonist	D2 potentiator	D2 agonist	TRPML1 inh	PINK1 modulator	Six1-Eya2 blk
N[C@@H](Cc1ccc(O)c(O)c1)C(=O)O	-0.6	-2.0	0.7	-14.5	0.4%	?
Oc1oc(-c2ccccc2)nc1C=NCc1ccccc1	1.2	-31.1	-2.0	-5.6	-3.7%[38.3 µM]	-8.7
O=c1c2oc3ccccc3c2n(Cc2cccc(F)c2)c(=O)n1Cc1ccco1	1.5	·	·	4.0	-0.1%	·
CCc1nc(N2CCC3(CC2)OCCO3)c2nnn(Cc3ccccc3)c2n1	5.9	-4.3	4.4	46.4	0.8%	20.1
CCOC(=O)c1ccc(NC(=O)C2CC(=O)N(c3ccc4c(c3)OCCO4)C2)cc1 (configuration not stated)	-0.4	-0.8	5.7	-3.9	6.2%	-1.5
CCOc1cccc(/C=N/NC(=O)c2cc(-c3cccn3C)n[nH]2)c1O	0.3	-13.7	-0.1	-14.6	-1.5%	-87.0*
O=C(NC1CCCCC1)c1cc(-c2ccc(O)cc2)on1	0.1	2.3	4.1	9.7	9.7%	2.3
COc1ccc(C(=O)OCC(=O)c2ccc(C)c(S(=O)(=O)N3CCOCC3)c2)cc1OC	·	10.0	4.0	·	1.7%	-15.0
Cc1ccnc(SCC(=O)N2CCc3ccccc3C2)n1	0.0	-7.2	0.2	4.6	0.0%	47.4
Cn1nnnc1SCCCNCc1cccc(OCc2ccccc2F)c1	0.0	·	·	2.1	0.4%	·
Cc1ccc2cccnc2c1N	-0.2	-2.7	-2.3	-3.3	-1.7%	-1.3
O=C(NCC(c1cccs1)N1CCOCC1)c1cccc(S(=O)(=O)Nc2ccc(F)cc2)c1 (configuration not stated)	0.8	-2.7	-1.0	-6.9	0.7%	6.6
CC(C)CC(CO)NS(=O)(=O)c1cccc(Cl)c1F (configuration not stated)	-0.6	-2.7	-0.9	-2.1	0.8%	-1.1
Cc1cc(Cl)ccc1OCCCC(=O)Nc1cccnc1	2.8	-12.8	-0.7	-17.2	2.4%	22.3
CC(=O)Oc1ccc(/C=N/NS(=O)(=O)c2ccc(C)cc2)c(OC(C)=O)c1	1.0	-2.6	-4.7	-22.4	2.1%	-4.3
COc1cc2c(cc1OC)-c1n[nH]c(=S)n1C(C)(C)C2	-0.4	-30.9	-4.3	-7.5	1.4%	5.0
Nc1nnc(C2CCCC2)s1	0.4	-4.1	-7.4	-10.2	0.1%	8.0
O=C(c1ccco1)N1CCC(N2CCN(c3ccccc3)CC2)CC1	-0.5	-9.7	1.3	-2.4	1.4%	4.8
CCCCCN(C(=O)CCC(=O)OC(C)C(=O)c1ccc(CC)cc1)c1c(N)n(CCCC)c(=O)[nH]c1=O (configuration not stated)	2.4	4.6	-1.4	-1.8	-0.6%	-1.2
COc1ccc2c(c1)cc1n2CCN=C1NCCO	-0.4	-12.4	-1.4	-6.9	2.1%	4.4
O=C(NCCc1cccnc1)C1CCC(=O)N(Cc2ccc(Cl)cc2)C1 (configuration not stated)	-0.9	-3.9	-2.0	39.9	-0.5%	0.0
O=C(Nc1ccsn1)c1ccc(Cl)cc1Cl	0.7	-25.3	7.2	-26.7	0.8%	3.7
COc1ccccc1C(=O)NC(CCSC)C(=O)Nc1ccc(C)c(S(=O)(=O)N2CCOCC2)c1 (configuration not stated)	0.3	-3.9	-4.5	6.6	1.9%	-19.3
Cc1ccc2c(c1)N(CC(=O)OCC(=O)NCc1ccccc1)C(=O)CO2	-0.6	-3.6	-6.4	3.6	3.4%	1.6
COc1cc(C(=O)Nc2ccc3oc(-c4ccc(C)c(Br)c4)nc3c2)cc(OC)c1OC	-0.4	·	·	-13.0	0.0%	·

Next part
SMILES	TRPML1 agonist	D2 potentiator	D2 agonist	TRPML1 inh	PINK1 modulator	Six1-Eya2 blk
Cc1ccc(N(CN2CCCC2=O)C(=O)c2ccccc2)cc1	0.8	-3.7	0.6	0.0	1.4%	11.0
Cc1cc2cc(CNC(=O)C3CCCC3)ccc2n1C	0.8	-9.9	-5.5	-2.5	16.6%	-0.3
CC(C)(C)NC(=O)Nc1ccc2nccnc2c1	0.0	-15.0	-4.9	-4.9	0.6%	-10.1
C[C@H]1CN(S(=O)C(C)(C)C)[C@@H](CCO)/C1=C\CCO (some centres not stated)	0.4	·	-1.9	35.2	-0.8%	7.4
CC1CCCC(NC(=O)CN2CCN(S(=O)(=O)c3cccs3)CC2)C1C (configuration not stated)	-0.6	-0.9	5.1	8.4	-1.0%	2.8
O=C(OCC(=O)N1CCCC1=O)c1ncc(Cl)c(Cl)c1Cl	0.9	-15.6	-0.9	-1.5	-1.2%	18.3
O=C(c1ccc(S(=O)(=O)N2CCOCC2)cc1)N(c1cccc(Cl)c1)C1C=CS(=O)(=O)C1 (configuration not stated)	0.6	-5.1	1.9	-6.1	2.3%	2.0
CC(C)c1nnc(NC(=O)CC(C)c2ccccc2)s1 (configuration not stated)	-0.5	12.5	3.0	25.2	4.7%	1.9
Cc1ccc(C(=O)NCC(=O)NC2CCC(C)CC2)s1 (configuration not stated)	-0.1	-3.6	2.6	-7.0	-0.3%	2.8
COc1ccc(-c2cc(-c3ccccc3)n3ncnc3n2)cc1	-0.6	-22.0	1.2	-9.2	-1.7%	-3.5
CCCOc1ccc(Cl)cc1/C=C1/C(=O)ON=C1C	0.3	0.9	-0.1	11.9	9.5%	1.5
CCSc1nnc(NC(=O)Cc2cccc(OC)c2)s1	-0.5	-5.2	-2.0	-2.8	0.5%	7.6
CCC(=O)N1CCc2cc(Br)cc(S(=O)(=O)CCC(=O)Nc3ccc(C)c(F)c3)c21	-0.9	·	·	-5.5	-0.5%	·
CCS(=O)(=O)N1CCN(c2ccc([N+](=O)[O-])c(NCc3cccnc3)c2)CC1	-0.7	-19.0	1.2	0.4	0.1%	-3.5
CCOc1cc(/C=N/NC(=O)c2cccc([N+](=O)[O-])c2)ccc1OS(=O)(=O)c1ccccc1	0.9	7.4	-0.2	52.0	3.7%	-22.1
O=C(Cc1cccc(NC(=O)C2CCCN(C(=O)C3CCCC3)C2)c1)Nc1ccc(C(=O)N2CCCCC2)cc1 (configuration not stated)	0.0	·	-2.9	-10.7	-0.7%	4.8
CCCCCC(=C/c1ccccc1)/C=N/Nc1ccc(S(=O)(=O)N2CCOCC2)cc1[N+](=O)[O-]	-0.5	-3.6	3.1	6.6	1.5%	-20.9
